High-throughput results as filed in PubChem BioAssay.
LANA-nucl inh: inhibitors of KSHV LANA binding to nucleosomes | FITC-LANA1-23 / chicken nucleosome fluorescence polarization; stronger effect = lower value | z-score (test concentration not listed) | hit rate 0.3% among 51,000;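 active means both repeat wells score below -2 in polarization z-score versus plate sample wells, excluding overly bright wells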;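 further: 100 nL library stock added to about 30 µL; numbers are from one replicate; some results filed as inactive read as strong as hits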
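Assay system: purified chicken nucleosomes with FITC-labelled LANA N-terminal peptide (1-23) / Probe or stimulus: 50 nM FITC-LANA1-23 probe / Compound dosing: pin-transferred compound, 100 nL / Times: compound with peptide–nucleosome mix 10–45 min at room temperature / Technique: fluorescence polarization, 480 nm excitation, 535 nm parallel and perpendicular emission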
Ab BasE inh: inhibitors of Acinetobacter baumannii siderophore enzyme BasE; purified BasE, fluorescence polarization binding displacement; inhibition, % (test concentration not listed); hit rate 0.1% among 84,000;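 active means both replicates above 25% with normal brightness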;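 further: 0% = negative plate control signal and 100% = positive plate control signal; stock transfer was 100 nL into about 30 µL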
Active calls of the source: *; . = not tested or not shown.

SMILES	LANA-nucl inh	Ab BasE inh
Cc1cc(Br)ccc1NCc1ccc2c(c1)OCO2	.	-1.2
CC(=O)NC1(c2ccccc2)CCNCC1	-0.53	0.2
CCCCC(=O)Nc1cccc(-c2cn3ccsc3n2)c1	1.9	-6.9
COc1cc(OC)cc(C(=O)Nc2cccc(-c3nn4c(C)nnc4s3)c2)c1	0.6	-7.8
NS(=O)(=O)c1ccc(-c2ccc(/C=C3\COc4ccccc4C3=O)o2)cc1	.	-4.4
COC(=O)c1cccc(NC(=O)CC(C)C)c1	0.0065	-1.4
Cc1c(C(=O)C(C#N)c2nc3ccccc3[nH]2)oc2c(Cl)cccc12 (configuration not stated)	.	-1.8
O=S(=O)(c1ccc(Cc2ccc(S(=O)(=O)N3CCC4(CC3)OCCO4)cc2)cc1)N1CCC2(CC1)OCCO2	-1.5	1.6
Cc1cc(C(=O)Oc2ccc3c(c2)OCO3)c(C)s1	.	0.8
CCCCN1C(=O)CC(NNCc2ccccc2)C1=O (configuration not stated)	-0.42	0.2
O=C(CN1C(=O)C2CC=CCC2C1=O)NC1=NCCS1 (configuration not stated)	.	3.2
OCCN(Cc1ccccc1)c1ncnc2c1oc1ccccc12	.	-3.2
Cc1csc2nc(COC(=O)c3ccc4c(c3)NC(=O)C3CCCN43)cc(=O)n12 (configuration not stated)	.	0.1
Cc1cccc(N2COc3cc(C)c(Cl)c(C)c3C2)c1	-1	0.3
CC(C)(C)NS(=O)(=O)Cc1ccccc1Cl	-1	1.7
COCCNC(=O)N1c2ccccc2Sc2ccccc21	0.83	1.2
O=S(=O)(NCc1ccc(-c2cccs2)cc1)c1ccc(N2CCOCC2)nc1	.	-2.4
OC(CON=C1c2ccccc2-c2ccccc21)Cn1nnc2ccccc21 (configuration not stated)	0.42	0.2
N#C/C(=N\Nc1ccc(F)cc1)C(=O)NCC1CCCO1 (configuration not stated)	-0.75	0.6
CNC(=O)CSc1nnc2c(C)cc3ccc(OC)cc3n12	-0.82	-0.8
Cc1cc(C)c(C(=O)COC(=O)c2ccc(O)cc2)c(C)c1	.	0.7
Cc1ccc(C)c2nc(SCC(=O)NC3CCCCC3)c(C#N)cc12	0.11	-1.1
CC1(C)CCc2cc(S(=O)(=O)NCCN3CCCC3)ccc2O1	-0.86	.
CSc1cccc(NC(=O)Cn2cnc(S(=O)(=O)N3CCc4ccccc43)c2)c1	0.62	-0.1
O=C(NCCNc1cccc2ccccc12)c1ccco1	.	0.1

Overlap with the part before: 3 compounds; new compounds follow.
SMILES	LANA-nucl inh	Ab BasE inh
CC1(C)CCc2cc(S(=O)(=O)NCCN3CCCC3)ccc2O1	-0.86	.
CSc1cccc(NC(=O)Cn2cnc(S(=O)(=O)N3CCc4ccccc43)c2)c1	0.62	-0.1
O=C(NCCNc1cccc2ccccc12)c1ccco1	.	0.1
O=C(Nc1ccc2c(c1)C(=O)NC2=O)c1ccccc1	0.11	3.1
CC1Cc2ccccc2N1Cc1nc2ccccc2c(=O)[nH]1 (configuration not stated)	.	2.6
CCOC(=O)Cc1csc(NC(=O)c2cccs2)n1	1.6	-3.1
O=C(Cc1ccccc1)NCc1ccc2c(c1)OCO2	.	4.5
COc1ccc(CCN2CN=C(NS(=O)(=O)c3ccc(C)cc3)NC2)cc1OC	0.057	-0.4
CC(=C1C(=O)c2ccccc2C1=O)N1CCC(C(N)=O)CC1	.	0.9
O=C(O)[C@H](Cc1ccc(O)cc1)N1C(=O)c2ccccc2C1=O	-0.14	-0.2
Cc1cc(OCC(=O)N(C2CC2)C2CCS(=O)(=O)C2)ccc1Cl (configuration not stated)	.	0.0
CCc1ccc(S(=O)(=O)N2CCN(S(=O)(=O)c3ccc(CC)cc3)C(C)C2)cc1 (configuration not stated)	-0.76	3.3
Cn1c(C(C#N)C(=O)c2n[nH]c(=O)c3ccccc23)nc2ccccc21 (configuration not stated)	.	7.8
C#CCn1c(=NC(=O)C(C)C)sc2cc(Br)ccc21	0.072	0.7
Cc1nnc(N(C)C(=O)c2ccccn2)s1	-0.3	-2.7
Cn1c(=O)cc(SCC(=O)Nc2ccccn2)c2ccccc21	-0.31	-0.2
CC1=C/C(=N/NC(=O)c2c[nH]c3ccccc23)CC(C)(C)C1	.	1.6
COc1ccc(C2CC(=O)CC(=O)C2)cc1	-0.17	1.4
Cn1c(SCC(=O)NC2C3CC4CC(C3)CC2C4)nnc1-c1cccnc1 (configuration not stated)	.	0.7
O=C(CSc1nc(=O)n2ccccc2n1)NC1CCCC1	-1.1	2.5
O=C(c1ccc(F)cc1)c1ccc(N2CCCCC2)cc1	-0.34	2.4
O=C(COC(=O)c1ccco1)NCC1CCCO1 (configuration not stated)	0.033	1.6
CCn1c(=Nc2ccc(C)cc2)ccc2cc(C)ccc21	.	-5.0
Cc1ccc(N(C)C(=O)n2cnc3ccccc32)cc1	0.47	0.0
O=c1[nH][nH]c(=S)n1-c1ccc2c(c1)OCCO2	1.1	.
COc1ccccc1NC(=O)Nc1ccc(N2CCOCC2)cc1	.	0.4
FC(F)(F)c1ccnc(=S)[nH]1	.	1.2
CCn1cc(C(=O)NCC(OC)OC)c(=O)c2cc(S(=O)(=O)N3CC(C)CC(C)C3)ccc21 (configuration not stated)	2.3	-3.9

Arranged by value in LANA-nucl inh (high to low): 4 from the list above.
mol | LANA-nucl inh
CCOC(=O)Cc1csc(NC(=O)c2cccs2)n1 | 1.6
COc1ccc(CCN2CN=C(NS(=O)(=O)c3ccc(C)cc3)NC2)cc1OC | 0.057
O=C(O)[C@H](Cc1ccc(O)cc1)N1C(=O)c2ccccc2C1=O | -0.14
COc1ccc(C2CC(=O)CC(=O)C2)cc1 | -0.17

Molecules listed so far that have bromine (2):
SMILES	LANA-nucl inh	Ab BasE inh
Cc1cc(Br)ccc1NCc1ccc2c(c1)OCO2	.	-1.2
C#CCn1c(=NC(=O)C(C)C)sc2cc(Br)ccc21	0.072	0.7

More compounds follow:
SMILES	LANA-nucl inh	Ab BasE inh
COc1ccccc1N(C)C(=O)CCS(=O)(=O)c1ccc2c(c1)n(C)c(=O)c(=O)n2C	-1.2	1.6
Cc1ccc(C(=O)N(CC#N)CC#N)cc1	-0.72	0.1
COC(CNC(=O)c1csc2c1CCCCC2)OC	2.4	-1.9
Fc1ccc2[nH]c3c(c2c1)CN(Cc1ccc(Cl)cc1Cl)CC3	-0.25	.
CCOC(=O)C1=C(C)Nc2ccccc2N=C1NC(=O)Cn1c(=O)oc2ccccc21	.	-0.9
O=C(NC(=O)c1ccccc1)Oc1ccc(F)cc1	-0.39	4.7
CCC(=O)Nc1ccc(-c2nc3ccc(NC(=O)CC)cc3[nH]2)cc1	-0.37	0.8
O=C(CCNC(=O)c1ccco1)Nc1ccccc1	.	2.1
O=c1[nH]c2ccc(S(=O)(=O)N3CCN(c4cccc(C(F)(F)F)c4)CC3)cc2[nH]1	.	3.9
CCCN1C(=O)c2cc(C(=O)O)ccc2C1O (configuration not stated)	0.3	18
CSCCn1c(-c2ccccc2)cc(C(=O)N2CCOCC2)c1C	0.82	-2.8
Cn1cnnc1SCc1ccc(C(=O)N/N=C2\CCSC2)cc1	.	-0.2
CC(CN1CCCCC1)OC(=O)C1c2ccccc2Oc2ccccc21 (configuration not stated)	.	-0.5
C=CCN1C(=O)CN2c3ccccc3C(C)(C)C12C (configuration not stated)	.	0.1
Nc1ccc2c(c1)OCCOCCOCCO2	.	0.7
COc1ccccc1C(C#N)c1cccc(Cl)n1 (configuration not stated)	0.099	.
Cn1c(C(=O)O)nc2ccccc21	0.019	3.6
O=C(Nc1noc2c1COc1ccccc1-2)N1CCN(c2ccccc2F)CC1	-1.2	0.4
Cc1ccc2nc(COC(=O)CNC(=O)c3ccc(Br)o3)cc(=O)n2c1	.	-0.1
O=C(NC1CCCCCCC1)C1CCCC1	0.22	1.4
CCOc1ccc(NC(=O)c2ccccc2NC(=O)CN2CCOCC2)cc1	.	0.7
CCN1C(=O)/C(=C/c2ccc(C(C)C)cc2)NC1=S	0.02	5.2
Nc1nnc(COc2ccccc2)s1	-0.38	1.5
c1coc(CN=C2NC(=NCc3ccco3)c3ccccc32)c1	.	-0.1
O=C(CCCn1c2ccccc2c2cn[nH]c(=O)c21)NCc1ccccc1	-1.1	-0.6

4 entries picked at random from those above:
SMILES	LANA-nucl inh	Ab BasE inh
OCCN(Cc1ccccc1)c1ncnc2c1oc1ccccc12	.	-3.2
O=C(CN1C(=O)C2CC=CCC2C1=O)NC1=NCCS1 (configuration not stated)	.	3.2
CCn1cc(C(=O)NCC(OC)OC)c(=O)c2cc(S(=O)(=O)N3CC(C)CC(C)C3)ccc21 (configuration not stated)	2.3	-3.9
COc1ccccc1C(C#N)c1cccc(Cl)n1 (configuration not stated)	0.099	.

New compounds follow:
SMILES	LANA-nucl inh	Ab BasE inh
CCCc1[nH]n(-c2ccccc2)c(=O)c1C(C)=NCCOC	2.5	-3.0
CSc1ccc(C2C3(C#N)C(N)=NC4(OCCO4)C23C#N)cc1 (configuration not stated)	-0.034	-0.9
COCCNC(=O)c1cccc(NC(=O)C2=C(C)OCCS2)c1	0.69	-0.6
Cc1ccc(C(=O)OCC(N)=O)cc1N	.	0.1
Cc1cc2ccccc2c(N=Cc2cc(Br)cc(Br)c2O)c1C#N	.	3.2
Cc1ccc(NC(=O)CN(C)C(=O)C2COc3ccccc3O2)cc1 (configuration not stated)	.	2.9
COc1ccc(OC)c(S(=O)(=O)Nc2cc(C(=O)O)ccc2N2CC3CC(C2)c2cccc(=O)n2C3)c1 (configuration not stated)	0.033	4.2
C=C1N(C)c2ccc(NC(=O)c3ccccc3)cc2C1(C)C	.	-0.6
CC(=O)N(C)N1c2ccccc2CCc2ccccc21	-0.43	3.5
CN1CCN(Cn2c(=S)oc3cc(S(=O)(=O)Nc4ccccc4Cl)ccc32)CC1	.	3.1
CCS(=O)(=O)c1ccc(O)c(NCN2C(=O)S/C(=C\c3ccc(F)cc3)C2=O)c1	.	5.2
CCC(CO)n1c(SCC(=O)Nc2ccc(C)c(C)c2)nc2cc(OC)c(OC)cc2c1=O (configuration not stated)	.	1.3
Cc1noc(C)c1Cc1ccc(C(=O)O)s1	0.6	-0.9
NS(=O)(=O)c1ccc(-n2c(-c3ccncc3)n[nH]c2=S)cc1	-0.2	4.6
CC1CCCC(NC(=O)COC(=O)c2cccc(S(=O)(=O)N(C)C)c2)C1C (configuration not stated)	.	1.4
Nc1c(NCCN2CCOCC2)c2ccccc2oc1=O	0.76	-1.4
O=C1C2CC=CCC2C(=O)N1CN1CCN(Cc2ccccc2)CC1 (configuration not stated)	.	0.0
c1ccc(-c2noc(CCC3CCCC3)n2)cc1	-0.7	2.2
CC(C)c1cc(C(=O)O)no1	0.14	2.1
CC(C)(C)OC(=O)N1CCC(OCC(=O)O)CC1	0.31	3.5
CCCCn1nnnc1NCc1ccccc1	0.021	-1.0
CN(C(=O)COC(=O)c1ccccc1Br)C1CCCCC1	.	-0.1
CC1=CCC2C(=O)N(C3CCCCC3)C(=O)C2C1 (configuration not stated)	1	-1.9
COc1ccc(C(=O)O/N=C(\N)c2ccccc2)cc1	0.47	-2.1
CC(NC(=O)C(=S)N1CCCC1)c1ccccc1 (configuration not stated)	2	-3.0
The results go on.
SMILES	LANA-nucl inh	Ab BasE inh
CC1=NN(c2ccccc2)C(=O)/C1=C/c1cn(CC(O)CN2CCOCC2)c2ccccc12 (configuration not stated)	-0.62	-0.1
Cc1ccc(-n2c(C)c(Br)c3c2CCCC3=O)cc1	.	1.6
O=C1N=c2ccccc2=C1c1s/c(=N/N=C2\C(=O)Nc3ccccc32)n(-c2ccc(O)cc2)c1O	0.22	7.2
Cc1nc2c(=O)n(-c3cc(C(F)(F)F)ccc3Cl)nc(C)c2s1	.	1.4
O=C1CC(C(=O)Nc2ccc(Cl)cc2)SC(=Nc2ccccc2)N1 (configuration not stated)	1.8	1.3
CN(C(=O)COC(=O)Cc1c[nH]c2ccccc12)C1CCCCC1	.	1.4
CCC1CCCCN1Cc1ccc(CNC(=O)c2cc3ccc4cccnc4c3[nH]2)o1 (configuration not stated)	.	-22
CCOC(=O)CN1CCC(n2nnc3cc(C(F)(F)F)ccc32)CC1	2.7	-3.5
CCOC(=O)C1=C(CSCC(=O)OCc2ccc(C#N)cc2)NC(=O)NC1C (configuration not stated)	.	0.5
COC(=O)C(C)Sc1nc(N)c(NC(=O)c2ccco2)c(=O)[nH]1 (configuration not stated)	-0.086	0.7
CC(c1ccccc1)n1c(SCC(=O)c2ccc3c(c2)OCCO3)n[nH]c1=O (configuration not stated)	-0.8	0.5
O=C1CCCC2=C1C(c1cccc(Br)c1)Nc1ccccc1N2 (configuration not stated)	.	-1.6
Cc1cc(C)c(S(=O)(=O)N(C)CC(=O)NCc2ccco2)c(C)c1	-0.33	1.1
CCOc1ccc(CN(C)C(=O)C2=NNC(=O)CC2)cc1	.	-0.1
Cc1nnc(SCC(=O)N(c2ccccc2)C(C)C)n(N)c1=O	0.66	-1.0
C=CCn1c(C)cc(C(=O)COC(=O)C2CCN(C(=O)Nc3ccccc3)CC2)c1C	.	-2.1
CCOc1ccc(N=C2C(=O)N(CN3CCCCC3)c3ccccc32)cc1	.	2.3
CC1Cc2cc(S(=O)(=O)NCc3ccccc3)ccc2N1C(=O)C1CC1 (configuration not stated)	-0.65	-0.8
CCCSc1nnc(Nc2ccccc2F)s1	.	-0.1
COc1ccc(C(=O)OCC(=O)N(C2CCCCC2)C2CCS(=O)(=O)C2)c(O)c1 (configuration not stated)	.	0.9

Some of the compounds tested; count on the stated rates, not on these rows.
